VDR inhibitor: inhibitors of human vitamin D receptor | P11473 | VDR-SRC2-3 peptide fluorescence polarization, 2 h | Potency, µM, for the others: max response, negative = inhibition, most hits filed as inhibitors | 0.93% of 400,000 active; active = well fitted inhibition curve with a large enough effect; inconclusive = small, poorly fitted or top-dose-only effect, or another doubt; inactive = no such curve, though single readings can be large or run the other way; also: series mostly up to about 120 µM
Target sequence (P11473 whole entry, looked up): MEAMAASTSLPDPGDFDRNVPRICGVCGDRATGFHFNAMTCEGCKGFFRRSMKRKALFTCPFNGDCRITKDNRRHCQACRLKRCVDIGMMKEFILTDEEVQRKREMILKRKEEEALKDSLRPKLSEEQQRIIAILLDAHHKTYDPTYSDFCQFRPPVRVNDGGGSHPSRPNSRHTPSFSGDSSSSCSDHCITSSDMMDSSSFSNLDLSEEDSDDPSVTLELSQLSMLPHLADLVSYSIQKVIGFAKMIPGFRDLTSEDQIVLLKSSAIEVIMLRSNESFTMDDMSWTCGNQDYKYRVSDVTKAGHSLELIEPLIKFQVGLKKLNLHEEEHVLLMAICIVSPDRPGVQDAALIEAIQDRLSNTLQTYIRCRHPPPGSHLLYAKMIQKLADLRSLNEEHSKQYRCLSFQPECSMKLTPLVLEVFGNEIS
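Inhibition of the VDR/SRC2-3 peptide interaction is quantified by fluorescence polarization. Compounds (23 nl, pintool) incubate with the reagents for 2 hours at ambient room temperature.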
* hit, by the source's call; ? = inconclusive. % is scaled to controls: 0 for no effect and ±100 for the full control effect; potency is read from the fitted curve at half-maximal effect.

SMILES	VDR inhibitor
Cc1ccn(C(CC(=O)c2ccc(Br)cc2)C(=O)O)n1 (stereo unspecified)	?
O=C(Cn1c(=O)oc2ccccc21)N1CCN(c2ccc(N3CCOCC3)nn2)CC1	3%
O=C(CNC(=O)c1ccco1)NNC(=O)c1ccc(Br)cc1	-4%
CCOc1ccc(S(=O)(=O)Nc2ccc(C(=O)NCC(c3ccco3)N3CCCCC3)cc2)cc1 (stereo unspecified)	8%
Brc1ccccc1OCCOCCOc1cccc2cccnc12	-20%
Cc1cc(Cl)ccc1C(=O)C1CCCN(C(=O)c2ccoc2)C1 (stereo unspecified)	-2%
COc1ccc(C(=O)c2oc3ccccc3c2NC(=O)COc2cccc(C)c2C)cc1	-15%
CCOC(=O)c1ccc(NC(=O)c2ccnn2C)cc1	0%
CCN(CC)S(=O)(=O)c1ccc(OC)c(NC(=O)CCc2c(C)noc2C)c1	7%
COc1ccccc1N1C(N)=NC(N)=NC12CCCCC2	5%
O=C(Nc1ccc2c(c1)nc1n2CCCCC1)c1cc(S(=O)(=O)N2CCOCC2)ccc1Cl	-1%
CCCNC(=O)c1onc(CSc2ccccc2)c1C(=O)NCCC	-16%
CC1=C(C(=O)OCc2ccc3c(c2)OCO3)C(c2ccc(Cl)cc2)NC(=O)N1 (stereo unspecified)	-3%
CC1(C(=O)NC2CCCC2)CCC(=O)N1Cc1ccc2c(c1)OCO2 (stereo unspecified)	7%
CCn1cc(C(=O)Nc2ccc(Cl)cc2Cl)cn1	7%
CCOC(=O)C1CCN(C(=O)Cn2cnc3sc(C)c(S(=O)(=O)N4CCCCC4)c3c2=O)CC1	2%
Cc1[nH]n(-c2ccc(Cl)cc2)c(=O)c1C=NC12CN3CN(CN(C3)C1)C2	-5%
CCNC(=O)C(=O)N1CCC2(CC1)OCCN2S(=O)(=O)c1ccc(C)cc1	-2%
COc1cccc(NC(=O)CN(C)C(=O)c2cc(S(=O)(=O)Nc3ccccc3OC)ccc2C)c1	-1%
Cc1ccc(-c2nc(CN3CCN(C(=O)C4CCCO4)CC3)cs2)cc1 (stereo unspecified)	0%
O=C(OCc1cccc(Cl)c1)c1cc([N+](=O)[O-])ccc1N1CCOCC1	-8%
COc1ccc(C2=Nc3ccc(F)cc3NC(c3cccc(C(F)(F)F)c3)=N2)cc1	11%
COCCNC(=O)CCn1c(=O)c2cc(OC)c(OC)cc2n(CC(=O)Nc2ccc(Cl)cc2F)c1=O	7%
CC(C)(C)C(=O)Nc1sc(-c2ccccc2)cc1C(=O)O	13%
CC1CCC(NC(=O)CN2C(=O)c3cccnc3Oc3ccc(Cl)cc32)CC1 (stereo unspecified)	-1%
COc1cc(N=Nc2c(O)c3ccccc3[nH]c2=O)c(OC)cc1N=Nc1ccccc1	11%
Cc1ccc(CCNC(=O)CS(=O)Cc2nc(-c3ccccc3F)oc2C)cc1 (stereo unspecified)	-14%
CCOc1cc(/C=C/c2cc(C(=O)O)c3ccccc3n2)ccc1OC	3%
Cc1ccc(N(CC(=O)N2CCN(c3ccccc3)CC2)S(=O)(=O)c2c(C)noc2C)cc1	-5%
CCn1ccnc1CN1CCCC(C(=O)c2ccc3c4c(cccc24)CC3)C1 (stereo unspecified)	5%
COc1cc(NS(=O)(=O)c2ccc(NC(=O)c3ccccc3C(=O)O)cc2)nc(OC)n1	0%
CC(C)(C)n1nnnc1CN1CCN(C(c2ccccc2)c2ccccc2)CC1	-14%
O=C1NC(=O)C(c2ccccc2)(c2ccc(O)cc2)N1 (stereo unspecified)	2%
COc1ccc(-c2cc(C(=O)NCCCN3CCOCC3)no2)cc1	-10%
CCOc1ccc(C2NC(=O)c3ccccc3O2)cc1OC (stereo unspecified)	11%
Cn1c(-c2cccc([N+](=O)[O-])c2)[n+](C)c2ccccc21	-8%
O=C(CSC(=S)N1CCCC1)NCCc1ccccc1	-13%
O=C(CCn1c(=O)oc2ccccc21)Nc1ccon1	-12%
Cc1oc(-c2cccc(Cl)c2)nc1CSc1nncn2c1cc1occc12	12%
NC(=S)NN=C(c1ccc(Br)cc1)C1CC1	-5%

Another view of some results above:
mol,VDR inhibitor
Cc1ccn(C(CC(=O)c2ccc(Br)cc2)C(=O)O)n1 (stereo unspecified),?
O=C(Cn1c(=O)oc2ccccc21)N1CCN(c2ccc(N3CCOCC3)nn2)CC1,3%
O=C(CNC(=O)c1ccco1)NNC(=O)c1ccc(Br)cc1,-4%
CCOc1ccc(S(=O)(=O)Nc2ccc(C(=O)NCC(c3ccco3)N3CCCCC3)cc2)cc1 (stereo unspecified),8%
Brc1ccccc1OCCOCCOc1cccc2cccnc12,-20%
Cc1cc(Cl)ccc1C(=O)C1CCCN(C(=O)c2ccoc2)C1 (stereo unspecified),-2%
COc1ccc(C(=O)c2oc3ccccc3c2NC(=O)COc2cccc(C)c2C)cc1,-15%
CCOC(=O)c1ccc(NC(=O)c2ccnn2C)cc1,0%
CCN(CC)S(=O)(=O)c1ccc(OC)c(NC(=O)CCc2c(C)noc2C)c1,7%
COc1ccccc1N1C(N)=NC(N)=NC12CCCCC2,5%
O=C(Nc1ccc2c(c1)nc1n2CCCCC1)c1cc(S(=O)(=O)N2CCOCC2)ccc1Cl,-1%
CCCNC(=O)c1onc(CSc2ccccc2)c1C(=O)NCCC,-16%
CC1=C(C(=O)OCc2ccc3c(c2)OCO3)C(c2ccc(Cl)cc2)NC(=O)N1 (stereo unspecified),-3%
CC1(C(=O)NC2CCCC2)CCC(=O)N1Cc1ccc2c(c1)OCO2 (stereo unspecified),7%
CCn1cc(C(=O)Nc2ccc(Cl)cc2Cl)cn1,7%
CCOC(=O)C1CCN(C(=O)Cn2cnc3sc(C)c(S(=O)(=O)N4CCCCC4)c3c2=O)CC1,2%
Cc1[nH]n(-c2ccc(Cl)cc2)c(=O)c1C=NC12CN3CN(CN(C3)C1)C2,-5%
CCNC(=O)C(=O)N1CCC2(CC1)OCCN2S(=O)(=O)c1ccc(C)cc1,-2%
COc1cccc(NC(=O)CN(C)C(=O)c2cc(S(=O)(=O)Nc3ccccc3OC)ccc2C)c1,-1%
Cc1ccc(-c2nc(CN3CCN(C(=O)C4CCCO4)CC3)cs2)cc1 (stereo unspecified),0%
O=C(OCc1cccc(Cl)c1)c1cc([N+](=O)[O-])ccc1N1CCOCC1,-8%
COc1ccc(C2=Nc3ccc(F)cc3NC(c3cccc(C(F)(F)F)c3)=N2)cc1,11%
COCCNC(=O)CCn1c(=O)c2cc(OC)c(OC)cc2n(CC(=O)Nc2ccc(Cl)cc2F)c1=O,7%

(further entries)
SMILES	VDR inhibitor
COc1ccc2c(CNCCc3ccco3)c(C(=O)O)n(Cc3ccccc3)c2c1	7%
COc1cc(S(=O)(=O)NCc2cccnc2)ccc1F	1%
COc1ccc(NC(=O)c2c(NCc3cccc(F)c3)sc3c2CCCC3)c(OC)c1	3%
CCCS(=O)(=O)N1CCC(C(=O)NCCCOC(C)C)CC1	14%
C=C1CCN([C@@H](C)C(=O)NCc2cc(OC)c(OC)c(OC)c2)S(=O)(=O)c2ccccc21	12%
COc1ccc(C(O)Cc2nccn2C)cc1 (stereo unspecified)	-20%
CCOc1cccc(Nc2cc3n(c(=O)n2)CCc2cc(OC)c(OC)cc2-3)c1	-9%
O=C(O)C1C2C=CC(C2)C1C(=O)NCCCN1CCCC1=O (stereo unspecified)	-15%
CCSc1ccccc1C(=O)NCCc1ccccc1	-16%
C=CCn1c(O)c(C(CC)=Nc2ccccc2NC(=O)CC)c(=O)[nH]c1=O	-3%

Among those listed so far, these contain two or more sulfur atoms.
SMILES	VDR inhibitor
CCOC(=O)C1CCN(C(=O)Cn2cnc3sc(C)c(S(=O)(=O)N4CCCCC4)c3c2=O)CC1	2%
O=C(CSC(=S)N1CCCC1)NCCc1ccccc1	-13%

Further entries
SMILES	VDR inhibitor
COC(=O)N/N=C/c1cc(Br)ccc1O	2%
Cc1ccc(-c2noc(C(C)NS(=O)(=O)c3ccc(C)cc3)n2)cc1 (stereo unspecified)	8%
COC(=O)c1nc(Cl)c(Cl)c(N)c1Cl	9%
COc1ccccc1CNS(=O)(=O)c1cccc2nsnc12	-23%
COc1cccc(-c2nnc(NC(=O)CCS(=O)(=O)c3ccc(C)cc3)o2)c1	-7%
O=c1c2ccccc2nc(-c2ccco2)n1CCCn1ccnc1	2%
CC(Nc1nc(N2CCCC2)nc2ccccc12)c1ccccc1 (stereo unspecified)	-5%
Cc1sc2ncnc(N(C)Cc3cccs3)c2c1C	-11%
CCc1ccccc1NC(=O)Cn1c(=O)n(-c2ccc(C)cc2)c(=O)c2cc(OC)c(OC)cc21	-5%
CN(C(=O)c1ccc(NC(=O)Cc2cccc(NC(=O)C3CCCN(C(=O)C4CCCC4)C3)c2)cc1)C1CC1 (stereo unspecified)	-12%
COc1ccc(C2Nc3ccc(NC(C)=O)cc3C(=O)N2Cc2ccccc2)cc1COc1ccc(NC(C)=O)cc1 (stereo unspecified)	-9%
COC(=O)c1ccc(N(CC(=O)NC2CCCC2)C(=O)CNC(=O)c2ccco2)cc1	-4%
N=c1c2c(n(Cc3ccc(Cl)cc3)c3c1CCC3)CCC2	11%
O=[N+]([O-])c1cc2c(cc1CN1CCN(c3ccccc3F)CC1)OCO2	-11%
Cc1ccc(NC(=O)CSc2nc(-c3ccco3)cc(C(F)(F)F)n2)cc1	-9%
CCN(CC)CCN(C(=O)c1cc2c(ccc3ccccc32)oc1=O)c1nc2cc3c(cc2s1)OCCO3	1%
O=c1oc2ccc(Cl)cc2cc1-c1nc(-c2cccs2)no1	4%
Cc1ccc(-n2nc(C(=O)N3CCN(c4cccc(C(F)(F)F)c4)CC3)c(=O)n(C)c2=O)cc1	21%
Cc1ccc(C)c(N2CCN(S(=O)(=O)c3c(C)nc4sccn4c3=O)CC2)c1	4%
Cc1cccc(NC(=O)COc2cccc3c(=O)n(C)ccc23)c1C	5%
CCN(CC)C(=O)Oc1cc(=O)n(C)c2ccccc12	-16%
CC(NC(=O)c1ccc(S(=O)(=O)NCc2ccco2)cc1)c1ccc(F)cc1 (stereo unspecified)	2%
O=C(CCc1nnc(CCCCc2ccccc2)o1)N(CCO)Cc1ccccc1	12%
CN(C1CCCCC1)S(=O)(=O)c1ccc(S(=O)(=O)N(CC(=O)Nc2ccccc2)C2CC2)cc1	-13%
Cc1ccc(Sc2ccc(N3CCC(C(=O)Nc4cc(C)cc(C)c4)CC3)nn2)cc1	-3%
CC(C)(C)NC(=O)CC1C[C@H](C(=O)N2CCCCC2)[C@@]2(C)c3[nH]c4ccccc4c3CCN2C1=O (stereo partly specified)	-7%
COc1ccc(NC(=O)CSc2nc3ccccc3nc2N2CCOCC2)cc1	4%
Clc1cccc(-c2ccc(-c3nc4ccccn4c3NCc3ccccc3)cc2)c1	-22%
Cc1ccccc1N(C(=O)Cc1cccs1)C(C(=O)NC1CCCCC1)c1cn(C)nc1C (stereo unspecified)	13%
CCOc1ccc(CCNC(=O)COC(=O)CNC(=O)c2ccc(Br)o2)cc1OCC	9%
O=C(Nc1cccc2ncccc12)c1ccc(-c2ccc(Cl)cc2Cl)o1	0%
COc1cccc2c1Oc1ncccc1N(C(=O)CCC(=O)NCCC(C)C)C2	2%
CCCOc1cccc(C(=O)NC(=S)Nc2ccc(N3CCN(C)CC3)cc2)c1	-9%
O=C(N/N=C/c1ccoc1)c1ccccc1F	-12%
Cc1sc2nc(C(C)(C)C)oc(=O)c2c1C	-17%
Cc1c(Br)cnn1C(C)C(=O)N1CCN(c2ccccc2F)CC1 (stereo unspecified)	11%
CNC(=O)c1c(NC(=O)CCS(=O)(=O)c2ccc(Cl)cc2)sc2c1CCN(C(=O)OC)C2	4%
CCOC(=O)[C@H]1[C@H]2COc3ccccc3[C@@H]2N2C(=O)c3cc(Cl)ccc3NC(=O)[C@@]12C	-23%
COc1ccccc1CNS(=O)(=O)CC12CCC(CC1=O)C2(C)C (stereo unspecified)	-10%
O=C(NCCS(=O)c1ccc(Cl)cc1)c1cccc(Cl)c1 (stereo unspecified)	0%
CCOC(=O)C(NC(=O)NCc1ccccc1)(OCC)C(F)(F)F (stereo unspecified)	-27%
Nn1c(SCC(=O)N2CCCCCC2)nnc1-c1ccco1	0%
CCOc1ccc(Nc2cc(Nc3ccccc3OCC)nc(C=C(C#N)C#N)n2)cc1	0%
CCOc1ccccc1NC(=S)NC(=O)CCc1ccccc1	-5%
O=C(CSc1nnc(-c2ccccc2)n1C1CCCCC1)N1CCCC1	6%
O=C(c1cnn2ccccc12)N(Cc1ccco1)C1CCCC1	-26%
Clc1ccc(CSc2nnc(-c3ccncc3)s2)cc1	-15%
O=C(C1=C[C@H](c2ccccc2)C[C@H](OCCCCO)O1)N1CCN(Cc2ccc3c(c2)OCO3)CC1	-5%

Compound activity as filed in PubChem.

Not all compounds are listed (hit frequency here may not be typical).
